KSHV LANA nucl – inhibitors of KSHV LANA binding to nucleosomes; FITC-LANA1-23 / chicken nucleosome fluorescence polarization; hits give low values; z-score (concentration not given with the values); hit rate 0.3% among 51,000; AID 720717;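 active = both repeat wells score below -2 in polarization z-score versus plate sample wells, excluding overly bright wells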;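 also: 100 nL library stock added to about 30 µL; numbers are from one replicate; some results filed as inactive read as strong as hits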
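Test system: purified chicken nucleosomes with FITC-labelled LANA N-terminal peptide (1-23); Input: 240 nM purified chicken nucleosomes (480 nM peptide binding sites), final; Medium: TEN-BT buffer, pH 7.5; Timing: 10–45 min, room temperature; Technique: fluorescence polarization, 480 nm excitation, 535 nm parallel and perpendicular emission; Replication: duplicates.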
Ab BasE inh – inhibitors of Acinetobacter baumannii siderophore enzyme BasE; AID 485350; hit rate 0.1% among 84,000; inhibition, % (test concentration not listed); purified BasE, fluorescence polarization binding displacement;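 active = both replicates above 25% with normal brightness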;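 also: 0% = negative plate control signal and 100% = positive plate control signal; stock transfer was 100 nL into about 30 µL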
An asterisk follows results filed as active; nt = not tested or not shown; & = joins results of further samples. The list is partial; count on the stated rates, not on these rows.

Under each structure: KSHV LANA nucl | Ab BasE inh
Cn1c(=O)c2nc3ccc(NC(=O)Nc4ccccc4)cc3nc2n(C)c1=O
    -1.3 | 2.0
O=C(CC1=NS(=O)(=O)c2ccccc2N1)NC1CCCC1
    2.4 | -5.1
CC(=O)Nc1ccc(OCC(O)CN2CCN(C(c3ccccc3)c3ccccc3)CC2)cc1 (stereo not given)
    0.032 | -11
CSCCC(=O)N1CCN(S(=O)(=O)c2ccc(C)cc2)CC1
    nt | 1.8
Oc1oc(-c2ccccc2)nc1C1=NCCC1
    nt | 1.9
COc1ccccc1C(N)=S
    nt | 2.9
Cc1ccc(-n2nnc(C(=O)NC(C)C)c2C)cc1
    0.11 | -0.8
CCCN1C(=O)C(O)(C2COC(C)(C)CC2=O)c2cc(C)ccc21 (stereo not given)
    -1.2 | -1.1
CCOC(=O)Cn1c(O)c(N=NC(=O)c2cccc(F)c2)c2ccccc21
    0.69 | 0.5
O=C(CN1CCc2ccccc21)Nc1nnc(-c2cccs2)s1
    nt | 0.8
Cn1/c(=N/N=C(\CCC(=O)O)c2cccs2)sc2ccccc21
    nt | -1.2
CNC(=O)NC(=O)C(C)N1CCN(C/C=C/c2ccccc2)CC1 (stereo not given)
    nt | 1.6
CC(c1ccccc1)n1cnc2c(cnn2-c2ccc(F)cc2)c1=O (stereo not given)
    0.98 | 1.6
CC(C)(C)c1cc(C(=O)NCc2cccs2)cc(C(=O)NCc2cccs2)c1
    nt | 3.2
O=C(Nc1ccccc1)N(Cc1ccco1)C1CCS(=O)(=O)C1 (stereo not given)
    -1 | -0.1
CN(C)c1ccc(CNCc2ccccc2)cc1
    0.52 | -0.3
COc1cccc(CN(C)C(=O)c2ccccc2Cl)c1OC
    nt | -0.2
COc1cccc(N2C(=O)CC(N3CCC(C(N)=O)(N4CCCCC4)CC3)C2=O)c1 (stereo not given)
    1 | -1.3
CCOC(=O)c1[nH]c(C)c(C(=O)N2CCN(c3ccccc3)CC2)c1CC
    -0.27 | 0.4
CCOc1ccc(CCNC(=O)CC2Oc3ccccc3NC2=O)cc1 (stereo not given)
    0.84 | 0.7
Cn1/c(=N/N=C2\C(=O)Nc3ccc(F)cc32)sc2ccccc21
    nt | 6.4
CC1(C)N=C(NC(=O)NC(=O)c2ccccc2Cl)N(c2ccccc2)O1
    nt | -1.6
Cn1ccnc1C(O)c1ccc2c(c1)OCO2 (stereo not given)
    -0.44 | -0.5
CCOc1ccccc1CNC(=O)C(C)n1ncn2cccc2c1=O (stereo not given)
    -0.71 | 0.9
O=C(c1cccnc1)N1CCC2(CC1)OCCO2
    0.49 | -1.5
Cc1ccc2[nH]c3nc(=S)[nH]nc3c2c1
    0.18 | 2.5
Cc1ccc(N2CCN(/N=C\C=C\c3ccccc3)CC2)cc1
    nt | 4.5
CCc1noc(C)c1C(=O)N1CCc2ccccc21
    nt | 1.6
CCOC(=O)c1ccc(N=C2NC(=O)/C(=C/c3ccc(N4CCOCC4)cc3)S2)cc1
    0.9 | 1.9
O=C(COc1ccccc1)N1CCN(c2ncccn2)CC1
    nt | -0.9
Cc1cccc(-c2nc3sc4c(c3c(=O)[nH]2)CCCC4)c1
    nt | 3.2
CN(CC(=O)Nc1ccc(SC(F)F)cc1)C1CCCCC1
    nt | -1.8
Cc1ccccc1N(C)C(=O)c1ccc2c(=O)n3c(nc2c1)CCCCC3
    -0.53 | -2.6
NC(=O)C1CCN(C(=O)CCC(=O)c2ccc(Br)cc2)CC1
    nt | -0.6
O=C(CN1CCC(n2nnc3cc(F)ccc32)CC1)N1CCCc2ccccc21
    0.65 | -1.5
CCn1nc(C(=O)Nc2ccc(F)cc2C)c2ccccc2c1=O
    nt | 2.2
CCNC(=O)N(C)Cc1nc(-c2cccc(C)c2)no1
    1.1 | 0.8
N#Cc1ccc(CSc2nc(N)cc(=O)[nH]2)cc1
    -0.57 | -0.8
Cc1oc(-c2cccc(C(F)(F)F)c2)cc1C(=O)Nc1nccs1
    0.4 | -1.1
Cc1ccc(NC(=O)CCNS(=O)(=O)c2ccc3c(c2)CCC(=O)N3)c(Br)c1
    -0.95 | -0.5
O=C(OCc1ncc(-c2ccccc2)o1)c1ccccc1SCC(=O)N1CCCC1
    nt | -5.0
CC(C)(C)OC(=O)N1CCN(C(=O)C2CCN(c3nccc(C(F)(F)F)n3)CC2)CC1
    0.67 | 3.1
Nc1nc(-c2c(Cl)cccc2Cl)no1
    -0.053 | 2.2
O=C(CC1SC(=Nc2ccc(O)cc2)NC1=O)c1ccc(F)cc1 (stereo not given)
    -0.6 | 1.0
O=C1CSC(=Nc2cccc3ccccc23)N1
    -0.65 | -0.8
Cc1onc(-c2c(Cl)cccc2Cl)c1C(=O)NCC(C)(C)C
    0.26 | -1.3
O=C(Cn1[nH]c(=O)c2ccccc2c1=O)N1CCSC1=NCc1ccccc1
    nt | 0.3
CCCN1C2CCCC1CC(NC(=O)Nc1ccc(SC)cc1)C2 (stereo not given)
    -0.16 | -1.5
O=C(CSc1ccccc1)Oc1ccc2c(c1)OCO2
    nt | 1.2
CCN(CC)Cc1cc(C2N(C(C)=O)c3cccc4cccc(c34)N2C(C)=O)ccc1O
    -0.32 | 0.8
Cc1ccc(C(=O)Oc2cccnc2I)cc1
    0.12 | nt
O=C(O)C1CC(c2ccccc2)=NO1 (stereo not given)
    3.2 | -1.8
O=c1cc(CP(=O)(c2ccccc2)c2ccccc2)[nH][nH]1
    nt | 1.1
CN1CCN(C(=O)/C(=C/c2cn(S(=O)(=O)N(C)C)c3ccccc23)NC(=O)c2ccccc2)CC1
    0.21 | -2.7
CCOC(=O)N1CCC(NC(=O)Cn2c3ccccc3c3cn[nH]c(=O)c32)CC1
    -1 | 3.3
Cc1onc(-c2ccccc2)c1C(=O)NCC#N
    -0.028 | 1.4
Cc1ccc(C)n1CCN(C(C)C)C(C)C
    nt | 0.0
Cc1ccccc1OC(=O)c1ccc2c(c1)C(=O)N(C)C2=O
    -0.99 | 0.1
O=C(CN1C(=O)/C(=C/c2cccc(Br)c2)SC1=S)NCCc1ccccc1
    nt | 0.7
O=C(Nc1ccccc1)c1cccc(I)c1
    0.22 | 1.5

Remaining list, next part
Under each structure: KSHV LANA nucl | Ab BasE inh
COc1cc(C(=O)NNc2ccccc2)cc(OC)c1OC
    -0.29 | -0.5
COc1ccc(N2CCSC2C(=O)NN)cc1 (stereo not given)
    -2.5 | 2.5
CC(=O)N[C@@H](CC(C)C)C(=O)O
    -0.05&0.82 | 0.7&1.4
O=C(O)Cc1ccc(-n2c(-c3ccncc3)n[nH]c2=S)cc1
    0.96 | -0.2
CC1CCN(S(=O)(=O)c2ccc3c(c2)CCN3C(=O)Nc2ccccc2)CC1
    0.66 | 0.4
COc1ccccc1NC(=O)CSC1=NCCS1
    2.1 | -3.6
S=C(Nc1ccccc1)N(Cc1ccccc1)Cc1ccccc1
    nt | -0.1
CCCc1cc(=O)n2nc(N(C)CC(=O)N3CCCC3)sc2n1
    -1.4 | 1.0
O=C(NN=C1CCCCC1)NC1CCCCC1
    nt | 1.4
Cc1ccc(S(=O)(=O)N(CCC(N)=O)c2ccccc2)cc1
    nt | -0.5
NC(=O)c1cccc(N=Cc2cc(Br)ccc2O)c1
    0.93 | 2.9
CCOC(=O)c1c(N)n(CCO)c2nc3ccccc3nc12
    nt | 4.2
CC(=O)NCCC(=O)N1CCc2ccccc21
    nt | 1.7
CN(CC(O)COc1ccc(S(=O)(=O)N2CCOCC2)cc1)C1CCCCC1 (stereo not given)
    nt | 0.5
O=C(O)c1ccc(CSc2nc(-c3ccccc3)cc(C(F)(F)F)n2)o1
    0.62 | 4.9
C=CCn1c(Sc2c3c(nc4ncnn24)CCC3)nnc1-c1ccccc1
    -1.1 | 0.6
CN(n1cnc2ccccc2c1=O)S(C)(=O)=O
    0.15 | 4.2
Cc1ccc(N=C2S/C(=C/c3cccc(OCC(=O)O)c3)C(=O)N2C)cc1C
    nt | 1.2
Cc1cccc(CNCc2ccc3c(c2)OCO3)c1
    -1.1 | 0.0
Cc1c(C)c(C)c(S(=O)(=O)N2CCCC2)c(C)c1C
    nt | 0.3
CC(C)C(=O)c1c(C(C)C)nn2ccccc12
    0.013 | nt
CCCn1cnc2scc(-c3ccccc3)c2c1=O
    0.43 | -1.5
CSCc1c(C(=O)OC(C)C#N)oc2ccccc12 (stereo not given)
    nt | -0.1
CCCNc1ccccc1N
    nt | 3.9
CCC(Sc1nc2ncccc2o1)C(=O)NCc1ccc(C)cc1 (stereo not given)
    2.4 | -2.0
Oc1ccc(/C=N/N2CCOCC2)cc1
    nt | -0.9
CCC(=O)Nc1ccc(S(=O)(=O)N(C)C2CCCCC2)cc1
    1.2 | -0.4
O=S1(=O)N=C(Nc2ccc(N3CCCCC3)c(Cl)c2)c2ccccc21
    2.1 | 1.8
Cc1ccc(S(N)(=O)=O)cc1C(=O)NC1CCCCC1
    -0.14 | 4.4
COc1ccc(OC)c(NC(=O)C2CC(=O)N(CCc3ccccc3)C2)c1 (stereo not given)
    nt | 0.3
CCC(NC(C)=O)c1ccccc1 (stereo not given)
    0.42 | 1.6
O=C(COC(=O)Cc1c[nH]c2ccccc12)Nc1ccccc1C(=O)NC1CC1
    nt | 0.7
NC(=O)COc1ccc(/C=c2/sc3nc4ccccc4n3c2=O)cc1
    nt | 0.4
Cc1ccc(C(=O)c2ccc(CC(=O)O)n2C)cc1
    -0.56&0.78&0.47&0.2 | 0.3&1.6
O=C1CCCc2[nH]c(=O)c(C(=O)Nc3ccc(Cl)cc3)cc21
    1.6 | -5.0
CC(C)(C)OC(=O)N1CCC(c2cc(=O)n3[nH]c(-c4ccc(Cl)cc4)cc3n2)CC1
    0.21 | 1.5
O=C(NCc1ccccc1F)c1cccc(N2C(=O)CCC2=O)c1
    nt | 0.5
O=C(COc1ccc(Cl)cc1)N1CCN=C1SCc1cccnc1
    -0.33 | -0.6
O=C(CSc1ncnc2c1nnn2Cc1ccccc1)Nc1ccccc1
    0.14 | 0.2
C=C(C)c1cccc(C(C)(C)NC(=O)NCc2ccc(OC)cc2)c1
    nt | 2.1
O=C(Nc1c(C(=O)N2CCCC2)oc2ccccc12)C1CCCCC1
    nt | 1.8
COC(=O)c1ccc[nH]c1=S
    -0.58 | 2.8
CCC1CCc2sc(-c3n[nH]c(=S)n3C)cc2C1 (stereo not given)
    nt | -3.0
Cc1cc(NCCC#N)ccc1Cl
    nt | 0.8
N#CC(C#N)=C1c2ccccc2-c2nc(C#N)c(C#N)nc21
    0.5 | 1.1
Nc1cc(-c2ccccn2)[nH]n1
    0.033 | 0.1
O=C(/C=C/c1cn(-c2ccccc2)nc1-c1cc2ccccc2o1)Nc1nc2ccccc2[nH]1
    nt | 0.7
Cc1cc(=O)c2cc(Br)ccc2[nH]1
    -1.3 | 1.5
NC1(C2CCCCC2=O)CCCCC1 (stereo not given)
    -0.6 | -0.8
Oc1ccccc1Oc1c(F)c(F)nc(N2CCOCC2)c1F
    0.066 | -0.7
Cc1ccc(C(=O)c2cc3ccccc3o2)cc1C
    -0.39 | 2.2
O=C(NCc1ccccc1)C(Cc1ccccc1)N1C(=O)c2ccccc2C1=O (stereo not given)
    nt | 1.7
Cc1cccc(-n2c(CNC(=O)COc3ccc(Cl)cc3)n[nH]c2=S)c1
    -0.77 | 0.3
CNC(=S)NCc1cccnc1
    -0.46 | 3.5
N#Cc1ccccc1NC(=O)CN1CCCC1
    -0.47 | 1.2
Cn1ccnc1Sc1cnc(=S)[nH]c1-c1ccc(Cl)cc1
    0.19 | 0.1
CC(C)OC(=O)CSc1nnc(-c2ccc(N(C)C)cc2)o1
    -0.29 | 0.1
O=c1[nH][nH]c(=S)n1-c1cccc(F)c1
    -0.28 | -3.4
CC1CCC(NC(=O)c2ccc(CS(C)(=O)=O)cc2)CC1 (stereo not given)
    nt | 0.8
C/C(N)=C(/C#N)C(=O)CSc1cccc(C(F)(F)F)c1
    nt | -0.6

Looked up by structure from above (five):
Under each structure: KSHV LANA nucl | Ab BasE inh
CSCc1c(C(=O)OC(C)C#N)oc2ccccc12 (stereo not given)
    nt | -0.1
Cc1ccc(N=C2S/C(=C/c3cccc(OCC(=O)O)c3)C(=O)N2C)cc1C
    nt | 1.2
Cc1ccccc1OC(=O)c1ccc2c(c1)C(=O)N(C)C2=O
    -0.99 | 0.1
COc1ccc(OC)c(NC(=O)C2CC(=O)N(CCc3ccccc3)C2)c1 (stereo not given)
    nt | 0.3
Nc1cc(-c2ccccn2)[nH]n1
    0.033 | 0.1

(cont.)
Under each structure: KSHV LANA nucl | Ab BasE inh
CC(C)N(C(=O)COc1ncnc2ccc(Br)cc12)C(C)C
    nt | 1.9
O=C(CCC(=O)c1ccc2c(c1)OCCCO2)OCc1nc2ccccc2o1
    nt | 2.0
CCCNc1nc(Cl)nc(NCC(=O)OCC)n1
    1 | 0.2
O=C1C(NS(=O)(=O)c2ccccc2)=C/C(=N\S(=O)(=O)c2ccc(F)cc2)c2ccccc21
    nt | -1.5
CCOC(=O)c1c(C)noc1-c1csc(COc2cccc(Cl)c2)n1
    -0.39 | 1.5
Cc1cc(Cl)c2cccc(Br)c2n1
    0.54 | 0.8
C#CCn1nc(-c2ccccc2)ccc1=O
    -0.45 | 0.1
O=S(=O)(N/N=C/c1ccccc1)c1ccccc1
    -0.53 | 2.0
Cc1ccccc1-c1nnc(CN2CCc3ccccc3C2)o1
    -0.63 | 0.3
CNCc1ccsc1
    nt | 3.6
CC(C)=CCC/C(C)=C/C1OCCCO1
    -0.34 | 2.4
O=C(CCCSc1nc2scc(-c3cccs3)c2c(=O)n1-c1ccccc1)N1CCOCC1
    nt | -1.6

Screens (PubChem)
